# From PubChem
# Mtb H37Rv = M. tuberculosis H37Rv growth inhibitors, H37Rv strain (AID 1626). M. tuberculosis H37Rv growth inhibition; higher % means a stronger effect. one-dose inhibition, % at 10 µM; IC50 in µM for titrated hits. actives 0.95% (n = 220,000);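 active means confirmed in a dose series; inconclusive means inhibition above 80% but not taken into the dose series; inactive means below 80% or under 30% at every dose of the series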;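 further: bacteria incubated seven days before Alamar blue readout; 0% = bacteria only wells and 100% = bacteria with antibiotic wells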
# YopH PTP inh = YopH (Yersinia) phosphatase inhibition; fluorescence Ex485/Em525; inhibition, %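 (about 10 µM by stock and volumes)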; actives 0.16% (n = 140,000);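 active means inhibition of 50% or more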;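 further: controls were vehicle for no effect and minimum signal wells for full effect; inactives centre near -20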
# Arbovirus inh = blocks arbovirus infection; arbovirus infection cell-based antiviral screen; inhibition, % at 10 µM; actives 0.37% (n = 200,000);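 active means inhibition from about 30%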;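 further: bluetongue infection of BSR cells; cell survival read as ATP light after 72 h; 0% = infected wells without compound and 100% = uninfected wells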
# Mtb betalactam = beta-lactam sensitization of Mtb H37Rv | AID 434955 | M. tuberculosis H37Rv growth with meropenem, percent inhibition; hits of this screen are not shown here | actives 0.27% (n = 330,000) | inhibition, % at 25 µM;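 active means about 74% or more and at least 40 points above the plate without the antibiotic, then above 30% in a dose series; inconclusive means first-round hits that could not be retested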;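 further: growth measured after seven days incubation then overnight dye step; 0% = bacteria only wells and 100% = bacteria with antibiotic; twin plates without the antibiotic show which effects depend on it; some results filed as inactive read as strong as hits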
# RecA splice inh = inhibitors of M. tuberculosis RecA intein splicing. P9WHJ3. cell-free RecA intein splicing, fluorescence. inhibition, %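 (about 9 µM by stock and volumes)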. actives 0.75% (n = 290,000). AID 2221; in the data active means inhibition above about 30%; inconclusive means no clear call, values can overlap the other calls;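 further: 0% = vehicle wells and 100% = reference inhibitor control wells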
# Target sequence (P9WHJ3 whole entry, looked up, canonical isoform): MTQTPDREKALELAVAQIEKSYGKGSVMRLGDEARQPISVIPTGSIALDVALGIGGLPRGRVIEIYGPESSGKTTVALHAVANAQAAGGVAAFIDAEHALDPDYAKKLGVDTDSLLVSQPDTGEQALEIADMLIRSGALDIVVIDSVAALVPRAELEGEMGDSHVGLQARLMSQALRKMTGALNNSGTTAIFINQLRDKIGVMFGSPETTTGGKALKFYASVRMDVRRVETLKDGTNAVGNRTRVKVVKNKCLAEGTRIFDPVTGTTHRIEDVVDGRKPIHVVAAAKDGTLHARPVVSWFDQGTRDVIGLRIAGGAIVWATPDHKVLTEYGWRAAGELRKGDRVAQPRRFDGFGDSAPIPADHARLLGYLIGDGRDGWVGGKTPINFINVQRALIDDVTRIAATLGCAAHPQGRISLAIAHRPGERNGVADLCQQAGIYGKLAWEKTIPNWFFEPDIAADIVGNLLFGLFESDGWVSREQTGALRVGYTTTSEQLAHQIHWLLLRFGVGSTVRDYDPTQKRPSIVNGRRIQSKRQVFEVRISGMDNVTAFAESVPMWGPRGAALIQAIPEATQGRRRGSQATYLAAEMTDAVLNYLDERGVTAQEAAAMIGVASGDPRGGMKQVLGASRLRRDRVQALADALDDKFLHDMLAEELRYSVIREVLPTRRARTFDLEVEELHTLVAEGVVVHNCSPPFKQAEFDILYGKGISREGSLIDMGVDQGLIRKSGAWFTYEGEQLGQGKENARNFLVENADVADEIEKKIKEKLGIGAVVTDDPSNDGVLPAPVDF
# Arbovirus inh repeat = further read-out of Arbovirus inh, marked with its call; inhibition, %; measured here: 10K subset replicate screen; many hits read low in the repeat;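 first of two repeat runs on a subset; 0% = infected and 100% = uninfected wells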
# * = called active by the depositor; ? = inconclusive; · = no result given; & = joins results of further samples. An excerpt; rates above refer to the full screens.
SMILES,Mtb H37Rv,YopH PTP inh,Arbovirus inh,Mtb betalactam,RecA splice inh,others
CC(C)(C)[C@H]1CCC(=O)N([C@H](CC#N)Cc2ccccc2)CC1,·,·,·,-2,-1.6,
CC(=O)c1c(C)[nH]c(C(=O)CSc2nnc(C3CCCCC3)n2N)c1C,3%,-35,11,-4,2.5,
COc1cc(/C=C2\SC(N)=NC2=O)ccc1O,·,·,·,-2,-1.4,
Cc1nc2ccc(NS(=O)(=O)c3ccc4c(c3)OCCO4)cc2s1,-3%,-11,10,-12,1.1,
CCOc1ccc(CC(=O)OCc2cc(=O)n3cc(Br)ccc3n2)cc1,8%,·,5,-9,-4.5,
O=C(Nc1ccc(Cl)c(Cl)c1)OCCNC(=O)c1ccncc1,3%,·,2,1,-1.8,
COC(=O)c1ccccc1NC(=O)c1cccc(COc2ccccc2Cl)c1,-5%,-21,-10,42,2.2,
N#C/C(=C\c1ccc(N2CCOCC2)c([N+](=O)[O-])c1)c1nc2ccccc2[nH]1,-3%,-21,5,-2,10.0,
Cc1ccc(S(=O)(=O)n2c(C)nc3cc(C)ccc32)cc1,·,·,·,11,0.2,
COc1cc2c3c(c1)-c1c(sn(-c4cc(OC)ccc4OC)c1=S)C(C)(C)N3C(=O)C2=O,-5%,-3,6,-3,-3.3,
COCCNC(=O)Cn1cc(C(=S)N2CCCCC2)c2ccccc21,3%,·,5,-5,-1.4,
COc1ccc(CNC(=O)CSc2nc3c(oc4ccccc43)c(=O)n2CC2CCCO2)cc1 (centres undefined),·,·,·,-8,0.9,
O=C(O)c1ccc(NC(=O)C2CC=CCC2C(=O)O)cc1 (centres undefined),1%,-40,4,12,-3.6,
COC(=O)c1scc(C)c1NS(=O)(=O)c1ccc(NC(C)=O)cc1,-4%,·,·,-5,-0.5,
O=C(c1ccccc1)N1CCN=C1SCc1ccc([N+](=O)[O-])cc1,49%,-34,-9,-1,4.8,
CCC(C)NC(=O)CCSc1ccc(C)cc1 (centres undefined),10%,-32,1,0,6.0,
COc1ccc(CCN2C(=O)NC(NS(=O)(=O)c3ccc(Cl)cc3)(C(F)(F)F)C2=O)cc1OC (centres undefined),-7%,·,7,0,0.2,
CSc1nc(C)c(C(=O)C[n+]2ccccc2C)cc1C#N,·,·,·,-3,0.6,
Cc1cccc(NC(=O)c2cc(-c3cc(C)c(C)cc3O)n[nH]2)c1,·,·,·,2,0.0,
CCOC(=O)c1sc(NC(=S)NC(=O)C23CC4CC(CC(C4)C2)C3)cc1C,10%,-30,-3,-6,0.0,
C=C(C)C1CC=C(C)/C(=N/NC(=O)c2ccc(NC(=O)CCC)cc2)C1 (centres undefined),2%,-13,-6,11,-3.0,
O=C(Nc1cccc(-c2ccc(N3CCCCC3)nn2)c1)c1ccco1,·,·,·,16,2.8,
CC(=O)Nc1ccc(C(=O)NCC(c2ccco2)N(C)C)cc1 (centres undefined),·,·,·,-1,5.7,
CC(=O)Nc1cc(C(=O)N2CCCC2)ccc1S(=O)(=O)c1ccc(C)cc1,-1%,-28,0,2,2.9,
CCOC(=O)C1CCCN(Cc2ccc(OCc3ccccc3)c(OC)c2)C1 (centres undefined),·,·,·,1,2.0,
C=C(C)Cn1c(N2CCCC2)nc2c1c(=O)[nH]c(=O)n2C,-2%,-58,7,2,3.8,Arbovirus inh repeat=5
O=C(COC(=O)c1ccccc1O)NCCCc1ccccc1,36%,·,3,4,-1.9,
CC(C)CCC(CCNCc1ccccn1)c1ccc2c(c1)OCO2 (centres undefined),·,·,·,-1,3.5,
CC(C)CN1C2CCCC1CC(NC(=S)NCc1ccco1)C2 (centres undefined),-2%,·,1,2,-2.9,
CCCc1nnc(NC(=O)CCC(=O)NCc2ccccc2OC)s1,-2%,3,1,-4,1.2,

# In the list so far, these contain an aryl thioether with sulfur outside any ring:
SMILES,Mtb H37Rv,YopH PTP inh,Arbovirus inh,Mtb betalactam,RecA splice inh,others
CC(=O)c1c(C)[nH]c(C(=O)CSc2nnc(C3CCCCC3)n2N)c1C,3%,-35,11,-4,2.5,
COc1ccc(CNC(=O)CSc2nc3c(oc4ccccc43)c(=O)n2CC2CCCO2)cc1 (centres undefined),·,·,·,-8,0.9,
CCC(C)NC(=O)CCSc1ccc(C)cc1 (centres undefined),10%,-32,1,0,6.0,
CSc1nc(C)c(C(=O)C[n+]2ccccc2C)cc1C#N,·,·,·,-3,0.6,

# (list continues)
SMILES,Mtb H37Rv,YopH PTP inh,Arbovirus inh,Mtb betalactam,RecA splice inh,others
CC1CCCCC1NC(=O)c1ccc(S(=O)(=O)NCc2ccco2)cc1 (centres undefined),0%,36,-5,6,-0.8,
C=CCn1c(P(C)(=O)O)nc2ccccc21,7%&5%,-12,0&-2,6&12,-2.5&-0.7,
Cc1c(Cl)cccc1NC(=O)c1cc(S(=O)(=O)N2CCOCC2)cn1C,·,·,·,-1,-0.2,
COC(=O)c1ccc(N2C(=O)CC(N3CCC(n4c(=O)[nH]c5ccccc54)CC3)C2=O)cc1 (centres undefined),-3%,3,5,-3,·,
O=S(=O)(Nc1nc2ccccc2nc1Nc1ccc2c(c1)OCO2)c1ccccc1,2%,-19,20,2,-11,
CCc1ccc(CN(C)Cc2nc(-c3cccc(Cl)c3)no2)nc1,8%,·,0,62,3.7,
CN(CC(=O)Nc1ccc(F)cc1)c1ccc(S(=O)(=O)N2CCCCC2)cc1[N+](=O)[O-],6%,-10,0,4,1.9,
Cc1ccc2c(Cl)c(C(=O)NC3CC3)sc2c1,·,·,·,-1,-1.1,
CC(NC(=O)Cc1ccc([N+](=O)[O-])cc1)c1ccc2c(c1)OCO2 (centres undefined),8%,·,·,3,-1.6,
O=C(NCCN1CCN(C(=O)c2ccccc2Cl)CC1)C(=O)NCc1ccccc1,·,·,·,8,5.3,
COc1ccccc1NC(=O)CSc1ccc(-c2ccc(-n3cccn3)cc2)nn1,·,·,·,-6,0.1,
Cc1c(NC(=O)CCC2CCCCC2)cc(C(=O)N2CCOCC2)cc1[N+](=O)[O-],9%,·,-3,-6,-1.2,
COC(=O)CCc1c(COC(C)=O)[nH]c(C(=O)OCc2ccccc2)c1C,·,·,·,8,1.0,
O=C1C(=O)N(CC2CCCO2)C(c2ccco2)/C1=C(/O)c1ccc(F)cc1 (centres undefined),8%,·,0,6,0.3,
CC[n+]1c(/C=C/c2ccc(OC(C)=O)c(OC)c2)ccc2ccccc21,·,·,·,7,-4.5,
[N-]=[N+]=NC[C@H](Cc1ccccc1)N1CC[C@@H](O)CCC1=O,·,·,·,-13,-1.7,
Nc1nnnn1CC(=O)OCc1cccc(Br)c1,-4%,-20,4,-1,-0.8,
COc1ccc(C(=O)CSc2nnc(-c3ccoc3C)n2CC2CCCO2)cc1 (centres undefined),-7%,-30,3,-5,-1.0,
Cc1cccc(OCC(=O)N(Cc2cccs2)C2CCS(=O)(=O)C2)c1 (centres undefined),-9%,-28,5,-2,0.1,
Cn1c(O)c(C=NC2CCCCCC2)c(=O)[nH]c1=S,3%,·,-1,-1,-3.2,
Cc1cccc(-c2nc(CS(=O)CC(=O)NCCc3ccccc3)c(C)o2)c1 (centres undefined),·,·,·,0,2.0,
CC(C)N=C1SC(CC(=O)Nc2ccccc2)C(=O)N1C(C)C (centres undefined),-6%,·,-7,-8,-1.6,
O=C(CCC1CCCN(C(=O)c2ccc3c(c2)OCO3)C1)NCc1ccc(F)c(F)c1 (centres undefined),0%,·,-10,6,-0.6,
Cc1c(/C=N\NC(=O)c2ccc(F)cc2)cnn1C,-3%,-24,-1,6,-10,
COc1ccc(C/C(N)=N/OC(=O)Cc2ccccc2)cc1,-8%,-25,-4,6,1.1,
Cc1ccc(N2C(=O)C3N=NN(CC(=O)N4N=C(c5ccccc5)CC4c4ccccc4)C3C2=O)cc1 (centres undefined),-11%,·,17,-3,-3.2,
CCCCCN(C(=O)CCC(=O)OCC(=O)N(CC)C1CCCCC1)c1c(N)n(CCCC)c(=O)[nH]c1=O,·,·,·,-8,-0.3,
COC(=O)/C=C1/SC(=NC(=O)c2ccccc2)NC1=O,-1%,-33,8,4,0.4,
CCn1c(O)c(N=N)c2ccccc21,-4%,·,-8,-1,9.6,
CC(=O)Nc1ccc(S(=O)(=O)N(C)CC(=O)OCC(=O)c2cc(C)n(-c3ccc4c(c3)OCO4)c2C)cc1,-3%,-3,-12,-2,8.0,
O=C(Cc1cccs1)N(Cc1cccs1)C1(C(=O)NC2CCCC2)CCCCC1,0%,-14,-13,?,-2.1,
CCOc1ccc(C(=O)NCCc2cnc[nH]2)cc1OCC,·,·,·,-3,-0.3,
Cc1ccc(C(=O)CSc2nnc(-c3ccc4[nH]c(C)c(C)c4c3)o2)cc1C,20%,3,-35,10,-2.2,
CC(=O)c1cccc(NC(=O)N2CCCC2C(=O)Nc2cccc(C)c2C)c1 (centres undefined),-3%,-37,-7,1,·,
CCOC(=O)Cc1ccc(NC(=O)c2ccc(C(C)(C)C)cc2)cc1,36µM*,-14,-31,96,8.4,
CCc1nn(CC(=O)NCCCN2CCCC2=O)c(=O)c2cc3sccc3n12,11%,-50,-7,2,0.0,Arbovirus inh repeat=2
O=S(Cc1ccc(Br)cc1)Cc1nnc(SCc2ccc(Br)cc2)n1-c1ccccc1 (centres undefined),21%,-21,-32,59,4.2,
CCn1cc(CNC(=O)c2cccc([N+](=O)[O-])c2)c(C)n1,14%,-18,6,3,6.5,
COCCCN1C(=O)C(O)=C(C(=O)c2ccco2)C1c1cccc(Br)c1 (centres undefined),3%,-50,-1,9,1.0,
Cc1nc2ccccc2c(=O)n1-c1cccc(O)c1,2%,-22,2,-4,1.3,
CCCC(=O)Nc1ccc(S(=O)(=O)N2CCOCC2)cc1,1%,-11,10,-5,-1.5,
COc1ccc(/C=C/C2=Nc3ccccc3NC(C)(C)C2)cc1OC,-3%,·,·,1,-2.6,
COc1ccc(NC(=O)c2cc(C)nc3ccccc23)cc1S(=O)(=O)Nc1ccccc1Cl,-3%,9,-5,-4,-2.3,
CSc1nc(C)c(CCOCc2ccc(F)cc2)c(=O)[nH]1,1%,·,1,-2,2.1,
NS(=O)(=O)c1ccc(N2C(=O)C(=O)/C(=C(/O)c3ccccc3)C2c2ccc(Cl)cc2)cc1 (centres undefined),9%,·,·,-8,1.5,

# The closing 2 compounds of the part before lead into the next.
SMILES,Mtb H37Rv,YopH PTP inh,Arbovirus inh,Mtb betalactam,RecA splice inh,others
CSc1nc(C)c(CCOCc2ccc(F)cc2)c(=O)[nH]1,1%,·,1,-2,2.1,
NS(=O)(=O)c1ccc(N2C(=O)C(=O)/C(=C(/O)c3ccccc3)C2c2ccc(Cl)cc2)cc1 (centres undefined),9%,·,·,-8,1.5,
CCc1nnc(NC(=O)CCS(=O)(=O)c2ccccc2)s1,·,·,·,34,-0.3,
COc1ccc(N(C(=O)c2ccc(Cl)cc2)C2=CC3CCC(C2)N3C)cc1 (centres undefined),7%,-4,2,-5,-4.3,
COC(=O)Nc1ncc(CN2C(=O)c3ccccc3C2=O)s1,-1%,-6,-1,1,-4.3,
COCCNC(=O)C(c1ccc(F)cc1)N(Cc1cccs1)C(=O)CCC(=O)Nc1ccccn1 (centres undefined),·,·,·,-8,17,
COc1ccccc1NC(=O)NCCN1CCCCC1,·,·,·,2,-1.1,
Cc1ccc(NC(=O)CSc2n[nH]c(-c3cccnc3)n2)c(Br)c1,·,·,·,4,-0.8,
CCOC(=O)C1CN(S(C)(=O)=O)c2cc(CC(=O)OC)ccc2O1 (centres undefined),0%,·,4,-8,3.4,
CC(NC(=S)NC1CCC(C(C)(C)C)CC1)c1ccccc1 (centres undefined),·,·,·,1,4.3,
NC[C@H]1O[C@H](O[C@H]2[C@H](O)[C@@H](O[C@H]3O[C@H](CO)[C@@H](O)[C@H](N)[C@H]3O)[C@H](N)C[C@@H]2N)[C@H](N)C[C@@H]1O,-2%,-29,3,2,-1.3,
COCCNC(=O)C(c1ccc(C)o1)N(CC1CCCO1)C(=O)Cn1nnc2ccccc21 (centres undefined),9%,-3,2,0,-0.4,
CC(C)CC(NS(=O)(=O)c1ccccc1)C(=O)O (centres undefined),-10%,-21,-1,-13,-1.1,
CN(Cc1ccccc1)C(=O)c1[nH]cnc1C(=O)NCC(=O)OC(C)(C)C,·,·,·,-3,-0.3,
COc1cccc(C2NC(=O)CCC2[N+](=O)[O-])c1 (centres undefined),·,·,·,-2,-0.7,
COc1ccc(/C=C/C(=O)NC(=S)Nc2ccccn2)cc1,·,·,·,8,-0.7,
Cc1ccc(C(=O)C[n+]2cccc3cc(C)ccc32)cc1,2%,·,5,31,-0.2,
Cc1nn(CC(=O)NCCCN2C(C)CCCC2C)c(=O)c2cc3occc3n12 (centres undefined),·,·,·,-1,-2.3,
CC(C)CC(NS(=O)(=O)OCC(Cl)(Cl)Cl)c1ccccc1 (centres undefined),·,·,·,100,13,
